Sa ugtP lethal: compounds lethal to S. aureus RN4220 ugtP deletion mutant; OD600 growth, 16 h; some inactives read as strong as hits; growth inhibition, % (no concentration beside the values); actives 0.54% (n = 330,000);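 active = z-score under -3 and OD600 up to 0.15 on both plates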;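 also: plate controls were untreated wells for no effect and antibiotic for full effect; wells of about 80 µL received 100 nL stock; the first replicate is given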
PrP UTR inh: suppresses PrP 5' UTR mRNA reporter expression | AID 488862 | cell-based PrP 5' UTR mRNA reporter, plate reader | inhibition, % (concentration not given with the values) | actives 0.35% (n = 340,000);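 active = every replicate at 50% or more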;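 also: 0 = median of the neutral control wells; tested in H4 reporter cells; numbers are from one replicate; inactives centre near -14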
Mtb hypoxia rep: reduces hypoxia-regulated biosensor signal in M. tuberculosis. M. tuberculosis hypoxia-regulated fluorescent reporter, fluorescence. fluorescence inhibition, % (concentration not given with the values). actives 0.1% (n = 300,000). AID 1159583;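 active = 35 to 45% if threefold the growth effect, above 45% if 1.5-fold the growth effect; inactive = the rest, general growth blockers included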;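 also: wells of about 50 µL received 100 nL stock; 0% = vehicle wells and 100% = reference inhibitor wells; whole bacteria with a GFP reporter of the hypoxia response; strong numbers were not always called active; many hits fall short of the cut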
BJeLR viability: BJeLR cell viability loss; BJeLR (HRASV12) viability, CellTiter-Glo ATP luminescence, 48 h; reference of the scale not given here; inhibition, % (test concentration not listed); actives 0.17% (n = 300,000); AID 1554;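 active = replicate mean above 50%; inconclusive = above 50% but judged a plate artefact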;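 also: 50 nL library stock added to about 25 µL; numbers are from one replicate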
Bead autofluor: flagged as autofluorescent in microsphere protease counterscreen. compound autofluorescence counterscreen, microsphere flow cytometry; hits give high values. fluorescence intensity (test concentration not listed). actives 3.1% (n = 360,000);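 active = at least 3 SD above the mean of all compounds, about 16000 in these data; inconclusive = too few beads counted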;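 also: 100 nL of 1 mM stock went into each well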
RN4220 kill: S. aureus RN4220 growth inhibition | OD600, 16 h | actives 0.33% (n = 330,000) | inhibition, % (test concentration not listed);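 active = z-score of -3 or lower and OD600 up to 0.18 on both plates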;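 also: plate controls were untreated cells for no effect and reference antibiotic for full effect; stock transfer was 100 nL into about 80 µL; one replicate is shown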
Mtb hypoxia rep growth: also measured in Mtb hypoxia rep; calls as there; growth inhibition, %; measured here: M. tuberculosis growth (absorbance);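 0% = vehicle and 100% = reference antibiotic; read after six days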
* marks the source's active call; other numbers are inactive results; u = inconclusive; x = not tested or not shown.

SMILES	Sa ugtP lethal	PrP UTR inh	Mtb hypoxia rep	Mtb hypoxia rep growth	BJeLR viability	Bead autofluor	RN4220 kill
Cc1ccccc1C(=O)NCCCc1ccccc1	2	-45	12	16	-2	2394	2.3
O=C(Cc1c[nH]c2ccccc12)Nc1nc2ccccc2[nH]1	-10	-15	-73	0	1	4552	4.5
N#Cc1sc2nc3c(c(-c4ccco4)c2c1N)CCCC3	4	-4	1	1	7	3115	1.8
C[C@H](NC(=O)NC1CCCc2ccccc21)C(=O)O (some centres not stated)	x	-21	x	x	0	3319	x
COc1cccc(N2CCC(N3CCN(C)C(CCO)C3)CC2)c1 (configuration not stated)	5	-30	4	0	-7	3528	1.8
O=c1c(C(c2nnnn2C2CCCCC2)N2CCCCC2)coc2ccc(Cl)cc12 (configuration not stated)	3	-20	0	3	0	9416	3.8
NC(=O)C1(C(N)=O)OC1c1ccc(Cl)c(Cl)c1 (configuration not stated)	7	-22	-6	0	-4	4833	4.9
CC(C)(C)c1cn(-c2ccc(F)cc2)c(=S)[nH]1	-2	10	-2	6	4	19889*	1.2
COc1ccc(N(C)C(=O)c2sc(Cl)nc2C)cc1	1	2	-1	6	-2	3595	-1.3
CC(C)(C)NC(=O)C(c1ccc(O)cc1)N(Cc1ccccc1)C(=O)CCC(=O)Nc1nccs1 (configuration not stated)	5	-11	1	2	-1	5262	0.3
COc1ccc(C(=O)N(CC2CCCO2)C(C(=O)NCCC(C)C)c2ccc(C)cc2)cc1OC (configuration not stated)	5	-18	-2	-3	10	2429	-1.9
Cc1cccc(/C=C\c2nc3ccccc3c(=O)[nH]2)c1	-16	-50	3	-4	45	2436	1.9
O=C(O)c1cccc(-n2cccc2/C=C2/NC(=O)N(c3cccc(Cl)c3)C2=O)c1	-4	-16	-5	-4	5	5103	0.8
CCCn1c(NCc2cc(C)ccc2O)nc2ccccc21	-8	-12	7	9	-6	4207	-1.6
CC(C)NC(=O)c1ccc(-n2nc(C(F)(F)F)c3c2CCCC3)cc1	1	-10	1	17	4	2186	-0.7
Cc1ccc(S(=O)(=O)N2CCN(C(=O)CSc3nnc(C)s3)C2)cc1	5	8	x	x	-16	6056	3.3
CCCCC(CC)CNCc1cccn1CCN1CCOCC1 (configuration not stated)	2	-19	16	13	2	3433	4.0
Cc1ccc(CNC(=O)C23CN(Cc4ccccc4)CC2C(c2ccc([N+](=O)[O-])cc2)=NO3)cc1 (configuration not stated)	x	-15	x	x	3	2838	x
Clc1ccc(OCc2nnc(SCc3nnc(-c4ccccc4)o3)o2)c(Cl)c1	-13	-22	6	6	2	17010*	14
COC(=O)c1c(-c2ccc(OC)cc2)sc2ccc(N3CCOCC3)cc12	-2	-30	5	9	x	3862	-5.7
COC(=O)c1ccccc1NC(=O)C1CCN(C(=O)c2cc(OC)c(OC)c(OC)c2)CC1	-6	-7	13	13	2	3238	-16
CCOC(=O)c1cccc(OS(=O)(=O)Cc2ccccc2)c1	11	x	6	3	-7	x	6.1
CCOC(=O)c1c(NC(=O)CSc2nccn2C)sc(C(=O)NC)c1C	3	-7	10	3	-1	5761	3.3
Cn1c(=O)n(C)c2cc([N+](=O)[O-])c(N3CCN(C(=O)c4ccccc4)CC3)cc21	6	-21	5	5	6	7751	5.1
CCOc1cccc(C=NNS(=O)(=O)c2ccc(C)c([N+](=O)[O-])c2)c1O	22	x	15	4	x	x	8.9
Cc1ccccc1NC(=O)Nc1c(C)n(C)n(-c2ccccc2)c1=O	-1	-7	10	6	2	6594	0.0
O=C(c1cccc(F)c1)N1CCN(CC2CC3C=CC2C3)CC1 (configuration not stated)	-2	-6	x	x	x	6481	-1.4
O=C(Nc1ccc2c(c1)OCCO2)C1CCN(S(=O)(=O)c2cccc3nsnc23)CC1	-5	-20	x	x	-1	4643	-0.7
O=C(CN1CCN(Cc2ccccc2F)C1=O)NCC1CCCO1 (configuration not stated)	5	-6	3	1	2	3474	2.0
Cc1[nH]c2ccc(CNS(=O)(=O)c3ccc(S(=O)(=O)N4CCOCC4)cc3)cc2c1C	5	-3	5	19	4	6262	6.1
CCOc1ccc(/C(CCC(=O)O)=N/NC(=S)NCCc2ccccc2)cc1	x	18	x	x	-19	3330	x
O=C(Cc1csc(-c2ccccc2)n1)NCc1ccco1	-4	-15	9	6	4	3150	0.1
COC(=O)c1cc2oc(C)cc2n1CC(=O)Nc1ccc(C)c(C)c1	10	-19	-1	5	1	6473	4.0
O=C(/C=C/c1ccc([N+](=O)[O-])cc1)N1CCN(S(=O)(=O)c2ccccc2)CC1	6	-17	-1	-1	x	6800	1.5
c1ccc2nc3c(cc2c1)CCCCCC3	3	-1	x	x	0	4862	14
CC1Cc2ccccc2N1C(=O)C(C)n1cc(C(F)(F)F)cc(Cl)c1=O (configuration not stated)	1	-11	8	-1	x	x	-1.1
CC(C)NC(=O)C(=O)NCCc1ccc(Cl)cc1	9	-10	x	x	-2	2022	-1.6
CC1(C)CC(=O)C2=C(C1)NC(=O)CC2c1cc(F)ccc1F (configuration not stated)	-2	2	x	x	-6	2652	3.8
Cc1cc(OCC(=O)N2CCC(C(=O)O)CC2)c2c3c(c(=O)oc2c1)CCCC3	2	-17	x	x	-8	4876	4.1
O=C(CCNc1ccc(Cl)cc1)c1cccs1	12	-63	5	9	8	2130	5.9
Cn1c(CSCc2ccc(Cl)cc2)nnc1SCC(=O)Nc1nc2ccccc2s1	4	-20	5	0	-14	6209	1.2
[O-]/[N+](=C\c1ccc(OC(F)F)cc1)c1ccccc1	-5	-11	-16	2	2	9497	-0.1
N#Cc1ccc(Oc2ccc(S(=O)(=O)N3CCCC3)cn2)cc1	1	-24	1	6	-4	6329	-1.4
CC1CC(=O)Nc2ccccc2N1S(=O)(=O)c1ccc(C(F)(F)F)cc1 (configuration not stated)	8	-12	7	1	-5	11603	4.2
CCOC(=O)CCN(Cc1cccs1)S(=O)(=O)c1ccc(F)cc1	1	-11	2	8	-9	11412	2.9
Cc1ccc(CNC(=O)CN2C(=O)NC(C)(c3ccccc3Cl)C2=O)cc1 (configuration not stated)	12	-3	5	1	1	3385	1.5
CCN(CC)Cc1nc2c(c(=O)[nH]1)C(CC)(CC)Cc1ccccc1-2	4	-11	8	5	-4	x	5.6
CCCC1(c2ccccc2)NC(=O)N(CC(=O)NCC2COc3ccccc3O2)C1=O (configuration not stated)	2	-16	9	0	x	x	2.1

One compound at a time, from the list above:
Cc1cc(OCC(=O)N2CCC(C(=O)O)CC2)c2c3c(c(=O)oc2c1)CCCC3 as listed: Sa ugtP lethal: 2; PrP UTR inh: -17; Mtb hypoxia rep: x; Mtb hypoxia rep growth: x; BJeLR viability: -8; Bead autofluor: 4876; RN4220 kill: 4.1
CCOC(=O)CCN(Cc1cccs1)S(=O)(=O)c1ccc(F)cc1 as listed: Sa ugtP lethal: 1; PrP UTR inh: -11; Mtb hypoxia rep: 2; Mtb hypoxia rep growth: 8; BJeLR viability: -9; Bead autofluor: 11412; RN4220 kill: 2.9

Four records drawn at random from those above, as already listed:
SMILES	Sa ugtP lethal	PrP UTR inh	Mtb hypoxia rep	Mtb hypoxia rep growth	BJeLR viability	Bead autofluor	RN4220 kill
Cn1c(CSCc2ccc(Cl)cc2)nnc1SCC(=O)Nc1nc2ccccc2s1	4	-20	5	0	-14	6209	1.2
CC1CC(=O)Nc2ccccc2N1S(=O)(=O)c1ccc(C(F)(F)F)cc1 (configuration not stated)	8	-12	7	1	-5	11603	4.2
Cc1ccc(CNC(=O)CN2C(=O)NC(C)(c3ccccc3Cl)C2=O)cc1 (configuration not stated)	12	-3	5	1	1	3385	1.5
N#Cc1ccc(Oc2ccc(S(=O)(=O)N3CCCC3)cn2)cc1	1	-24	1	6	-4	6329	-1.4

Continued.
SMILES	Sa ugtP lethal	PrP UTR inh	Mtb hypoxia rep	Mtb hypoxia rep growth	BJeLR viability	Bead autofluor	RN4220 kill
CN(CC(=O)Nc1ccccc1C(F)(F)F)C(=O)c1ccc2c(=O)n3c(nc2c1)CCC3	-3	x	4	2	x	u	0.9
Cc1cc(C)c(C)c(C(=O)CSc2nnc(-c3ccc4[nH]c(C)c(C)c4c3)o2)c1C	-30	-10	9	9	-10	2890	11
O=C(C1CCCN1C(=O)c1cccs1)N1CCc2ccccc21 (configuration not stated)	2	-64	x	x	-2	5080	1.2
O=S(=O)(c1cccc(-c2n[nH]c(=S)n2-c2ccc(OC(F)(F)F)cc2)c1)N1CCOCC1	0	-6	0	14	x	3692	3.8
Cc1cc2ncn(C3CC(O)C(CO)O3)c2cc1C (configuration not stated)	0	-24	4	0	x	3449	2.9
CCOC(=O)c1cn(Cc2ccccc2)c2cc(C)nn2c1=O	1	-24	14	2	4	6542	5.2
COc1cccc2cc(C(N)=O)c(=NNC(=O)COc3ccc(Cl)cc3)oc12	0	x	1	-4	x	x	3.8
O=C(Cn1nc(C(F)(F)F)c2c1CCCCC2)N1CCOCC1	0	-28	x	x	-2	4357	0.8
COc1ccc(-c2nn(CCC(=O)O)cc2/C=C2\SC(N)=NC2=O)cc1OC	x	-16	x	x	-20	2106	x
CC(=O)N1c2ccc(S(=O)(=O)N3CCCC3)cc2CC1C(=O)NCc1ccc(OC(C)C)cc1 (configuration not stated)	6	-8	0	6	1	4935	3.5
COc1cc(C(=O)Nc2nnc(Cc3ccccc3)s2)cc(OC)c1OC	3	-29	-1	-6	-5	3968	1.2
NC(=NOC(=O)c1cccc(Cl)c1)c1cccnc1	3	x	3	4	x	x	3.4
CCN(CC)C(=O)c1ccc(NC(=O)Nc2ccccc2F)cc1	-11	44	-5	3	55*	4538	-7.0
CC1CCCCN1CC(=O)Nc1ccc2c(c1)OC(F)(F)O2 (configuration not stated)	6	-5	10	-6	2	2009	4.0
O=C(Oc1cc(Cl)ccc1Cl)c1ccc(N2CCOCC2)c([N+](=O)[O-])c1	2	-6	9	6	1	8888	5.5
CSC(=O)NC(=O)NC(=O)c1ccc([N+](=O)[O-])cc1	1	3	8	5	-11	4188	3.5
CCSc1nnc(N2C(=O)C(O)=C(C(=O)c3ccco3)C2c2cccc(OC)c2)s1 (configuration not stated)	x	-36	x	x	-8	6164	x
CCOC(=O)c1cccc(NC(=O)COc2nsnc2N2CCOCC2)c1	2	4	11	12	-12	5318	3.3
O=C(CSCc1c(F)cccc1Cl)NCc1cccnc1	x	-15	x	x	-10	8551	x
O=C(O)CCc1ccc(-c2ccccc2)n1NC(=O)c1sc2ccccc2c1Cl	-2	-21	5	4	8	x	4.1
C=CCN1C(=O)C2C(C(=O)NC3CCCC3)C3(C)C=CC2(O3)C1C(=O)NC1CCCC1 (configuration not stated)	1	-18	-3	0	-2	6005	-2.4
COc1ccc2[nH]c3ccccc3c2c1	-7	-15	0	-2	0	2313	-8.4
CCOC(=O)C1C(C(=O)OC)=C(c2ccc(F)cc2)c2ccccc2N1S(=O)(=O)C(F)(F)F (configuration not stated)	14	-28	3	5	x	3348	0.7
COc1ccc(N2CCN(C(=O)CCNS(=O)(=O)c3ccc(Br)s3)CC2)cc1	-7	-4	x	x	1	3671	-0.2
O=C(NCc1ccccc1)C(=O)Nc1cccc(C(=O)O)c1	3	31	3	-4	-4	6098	10
COc1ccc(C)cc1N(CC(N)=O)S(=O)(=O)c1ccc(C)cc1	24	-18	14	3	-27	3166	8.0
Cc1ccc2nc(SCC(=O)Nc3ncccn3)[nH]c2c1	9	-14	2	5	-8	4361	3.0
CCCN(CCC)CCNC(=O)c1cc2c(=O)n(CC)c3ccccc3c2s1	-3	-31	-5	-6	14	4359	-2.7
COc1cc(/C=N/NC(=O)NC23CC4CC(CC(C4)C2)C3)ccc1O	x	-27	x	x	-1	4180	x
CC(=O)c1ccc(N2CCN(S(=O)(=O)c3ccc4c(c3)CC(C)N4C(=O)C3CC3)CC2)cc1 (configuration not stated)	9	-24	1	-1	4	5318	1.7
Cc1cccc(C)c1OCC(O)CNC(C)(C)C (configuration not stated)	-1	-10	19	6	3	16186*	2.6
COc1ccc(Br)cc1C=NNC(=O)c1cc(Br)ccc1O	2	x	-3	2	x	x	1.8
O=C(NCCc1ccccc1)c1ccc(NS(=O)(=O)c2ccc3[nH]c(=O)[nH]c3c2)cc1	8	-27	2	0	4	x	5.1
Cc1[nH]n(-c2ccc(F)cc2)c(=O)c1C=Nc1ccc(S(=O)(=O)N(C)C)cc1	4	-18	13	-3	14	8722	4.8
